Screens from PubChem BioAssay.
CBFb RUNX1 block = inhibitors of human CBF-beta and RUNX1 interaction. AlphaScreen CBFb-His/RUNX1-biotin binding, biochemical. Potency, µM (titrated, usually from 59.8 µM), for the others: at the top dose activity, negative = inhibition, hits mostly inhibitors. 230,000 tested, under 10 active; note: % of control where 0% means no effect
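AlphaScreen binding: CBFb-His and RUNX1-biotin (30 nM each) preincubated 20 min, compound added for 15 min, then nickel and streptavidin beads for 90 min, all at room temperature. Disruption of the interaction by any mechanism counts as activity.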
TexasRed fluor = Texas Red fluorescence interference in TRb-SRC2 counter-screen; TRb/SRC2 Texas Red total fluorescence interference; Potency, µM (doses to about 106 µM), for the others: top-dose fluorescence change, negative = quenching; actives 0.29% (n = 280,000); active = well fitted curve in either direction with a large enough effect; inconclusive = small, poorly fitted or top-dose-only effect; note: potency is the fitted concentration of half-maximal effect; % is set by controls: 0 for no effect and ±100 for the full control effect
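Human TRb ligand-binding domain at 0.6 uM with 20 nM Texas Red SRC2 peptide in Tris buffer containing 1 uM T3 and 5% DMSO, incubated with compound 5 h at ambient temperature. Total fluorescence (555/632 nm) calculated as parallel + 2 × perpendicular.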
Tau FP inhib = tau fibrillization inhibition (FP); actives 0.39% (n = 280,000); K18 P301L tau heparin fibrillization, Alexa594 FP, 6 h; Potency, µM (series often up to 57.7 µM), without a hit: at the top dose activity, negative = inhibition, hits mostly inhibitors; note: potency is the fitted concentration of half-maximal effect; % is set by controls: 0 for no effect and ±100 for the full control effect; nearly all actives have a fitted effect of over 55% in size
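FP of Alexa 594-tau after heparin (20 uM) induction. Substrate: human K18 P301L, 15 uM unlabeled, 0.24 uM labeled. Buffer 100 mM sodium acetate pH 7. 6 hr, 37 C.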
Epigenetic reg = regulators of epigenetic silencing causing reporter derepression in mouse cells | murine LDR cells, GFP reporter derepression, 30 h | AID 1865 | Potency, µM (doses to about 53.9 µM), without a hit: at the top dose GFP activation, usual class: activators | actives 0.2% (n = 280,000); note: potency is the fitted concentration of half-maximal effect; % of control where 0% means no effect; nearly all actives have a fitted effect of over 60% in size
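Derepression of a silenced CMV-GFP reporter in murine LDR cells is scored by enumerating GFP-positive cells with a laser-scanning microplate cytometer after 30 hours of treatment at 37 C.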
TRb-SRC2 inh = disrupts binding of human TR beta to SRC2. P10828. TRbeta-SRC2 peptide binding, fluorescence polarization; receptor liganded with 1 µM T3. Potency, µM (highest dose often 106 µM), for inactives: top-dose activity change, negative = inhibition, most hits filed as inhibitors. actives 0.065% (n = 280,000);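 note: potency is the fitted concentration of half-maximal effect; plate controls were bound peptide for no effect and peptide without receptor for full effect; nearly all actives have a fitted effect of over 50% in size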
Target sequence (P10828 whole entry, looked up): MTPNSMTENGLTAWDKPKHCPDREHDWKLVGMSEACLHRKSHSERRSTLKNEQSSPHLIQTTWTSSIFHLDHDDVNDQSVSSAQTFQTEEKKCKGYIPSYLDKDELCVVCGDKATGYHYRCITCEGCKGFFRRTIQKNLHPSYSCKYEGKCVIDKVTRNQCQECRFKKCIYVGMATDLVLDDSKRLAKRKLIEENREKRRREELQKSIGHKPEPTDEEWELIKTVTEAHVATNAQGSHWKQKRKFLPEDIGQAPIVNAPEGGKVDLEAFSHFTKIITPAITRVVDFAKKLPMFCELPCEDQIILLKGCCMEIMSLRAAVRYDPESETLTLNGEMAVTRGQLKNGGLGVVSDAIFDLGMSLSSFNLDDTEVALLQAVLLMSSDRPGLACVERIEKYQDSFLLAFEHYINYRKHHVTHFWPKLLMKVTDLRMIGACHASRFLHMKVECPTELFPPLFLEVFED
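A fluorescence polarization screen tested compounds at multiple concentrations against complex formation between 0.6 uM TRb ligand-binding domain and 20 nM Texas Red SRC2 peptide, with 1 uM T3 present; readout after 5 hr.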
Tau fluor cs = counter-screen for tau fibril formation inhibitors | actives 0.93% (n = 280,000) | tau K18 P301L (four-repeat tau fragment) Alexa594 fluorescence, heparin fibrillization | Potency, µM (titrated, usually from 57.7 µM), inactives show top-dose activity change, negative = decrease; note: potency is the fitted concentration of half-maximal effect; % is set by controls: 0 for no effect and ±100 for the full control effect; nearly all actives have a fitted effect of over 55% in size
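Human K18 P301L tau (15 uM unlabeled plus 0.24 uM Alexa 594-labeled, final) in 100 mM sodium acetate pH 7 was mixed with compound and 20 uM heparin and incubated 6 hr at 37 C.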
GLA spleen mod = inhibits or activates alpha-galactosidase in human spleen homogenate; human spleen homogenate, 4MU-alpha-Gal fluorescence, 40 min; Potency, µM (doses to about 80 µM), for the others: at the top dose activity change, negative = inhibition, hits mostly inhibitors; actives 0.008% (n = 240,000); AID 2107;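 note: potency is the fitted concentration of half-maximal effect; 0% = enzyme with vehicle and -100% = no enzyme basal signal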
Target sequence (P06280 32-429 limits assumed): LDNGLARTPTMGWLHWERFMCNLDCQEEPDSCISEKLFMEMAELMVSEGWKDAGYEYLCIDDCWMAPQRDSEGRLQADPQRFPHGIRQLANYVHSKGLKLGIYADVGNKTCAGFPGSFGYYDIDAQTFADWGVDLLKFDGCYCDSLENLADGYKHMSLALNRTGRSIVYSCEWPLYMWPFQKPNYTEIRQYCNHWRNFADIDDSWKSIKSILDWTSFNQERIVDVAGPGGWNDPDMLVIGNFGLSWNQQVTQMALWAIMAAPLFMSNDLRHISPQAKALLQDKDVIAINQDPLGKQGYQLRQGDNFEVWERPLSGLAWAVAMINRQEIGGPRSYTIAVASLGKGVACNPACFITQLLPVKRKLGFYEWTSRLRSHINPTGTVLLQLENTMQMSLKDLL
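Human spleen homogenate (1 ug) was the enzyme source, with 4-methylumbelliferyl-alpha-D-galactopyranoside (1 mM final) in pH 5.0 citrate buffer with 0.01% Tween-20. Compounds were titrated; after 40 min at 37C, NaOH/glycine stop, 4-MU fluorescence read; AC50 from Hill fits.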
* hit, by the source's call; ? = inconclusive; [ ] = another dose, or the depositor's remark. Unless noted, calls come from the whole dose curve; as a rule, active = well fitted curve in the direction sought with a large enough effect; inconclusive = small, poorly fitted or top-dose-only effect, or another doubt; inactive = no such curve, though single readings can be large; an effect the other way counts as inactive or inconclusive. Not all compounds are listed, so the mix of outcomes need not match the whole.

1) O=C(NC(NC(=S)Nc1c(Cl)cccc1Cl)C(Cl)(Cl)Cl)c1cccc([N+](=O)[O-])c1 (stereo not given)
2) O=C(CSc1nnc(COc2ccc(F)cc2)o1)N1c2ccccc2CCc2ccccc21
3) COc1cc(Cl)c(C)cc1NC(=O)c1ccc(NS(=O)(=O)c2ccc(F)c(F)c2)cc1
4) COc1ccc(C(=O)Nc2nnc(-c3ccccc3)o2)cc1OC
5) COc1ccc(OCc2nnc(SCC(=O)c3ccccc3)o2)cc1
6) CCOc1ccc(NC(=O)c2cnsn2)cc1

Assay by compound | 1 | 2 | 3 | 4 | 5 | 6
CBFb RUNX1 block | ? | -2% | -1% | -10% | 7% | 6%
TexasRed fluor | -1% | -8% | -2% | 0% | -1% | 1%
Tau FP inhib | ? | ? | ? | 0% | 9% | 1%
Epigenetic reg | -1.9% | 3.9% | 1.2% | 0.0% | 4.3% | -1.0%
TRb-SRC2 inh | -3% | -1% | -2% | -16% | -5% | -1%
Tau fluor cs | ? | -14% | -20% | -8% | -16% | 0%
GLA spleen mod | 4% | 8% | 10% | 2% | 3% | 3%

7) CCOC1(OCC)C(c2ccc(Cl)cc2)C(C#N)(C#N)C1(OCC)OCC (stereo not given)
8) C=CCSc1nnc2n(CCc3ccccc3)c(=O)c3c4c(sc3n12)COC(C)(C)C4
9) CC(C)(C)c1ccc(S(=O)(=O)n2c(CN3CCOCC3)nc3ccccc32)cc1
10) CCN(CC)S(=O)(=O)c1ccc2c(c1)nc(SCC(=O)N1CCCCCC1)n2-c1ccc(OC)cc1
11) CCOc1ccc(N/C(SCc2cccc([N+](=O)[O-])c2)=C(/C#N)C(N)=O)cc1
12) COc1ccc(C2CC(=O)N3C(=C2C#N)SCC3(O)c2ccccc2)cc1 (stereo not given)

Assay by compound | 7 | 8 | 9 | 10 | 11 | 12
CBFb RUNX1 block | 1% | 1% | 2% | -11% | 0% | -24%
TexasRed fluor | 0% | 0% | -1% | 1% | -4% | 2%
Tau FP inhib | 8% | -5% | 12% | ? | 4% | 7%
Epigenetic reg | -0.8% | 2.1% | 0.0% | -2.1% | -7.4% | -2.2%
TRb-SRC2 inh | 2% | 2% | -7% | 1% | -1% | 8%
Tau fluor cs | -7% | -13% | -8% | -1% | -28% | -21%
GLA spleen mod | 2% | 5% | -4% | -1% | 0% | -19%

Three compounds already listed, ordered by SMILES length, falling.
10) CCN(CC)S(=O)(=O)c1ccc2c(c1)nc(SCC(=O)N1CCCCCC1)n2-c1ccc(OC)cc1
2) O=C(CSc1nnc(COc2ccc(F)cc2)o1)N1c2ccccc2CCc2ccccc21
7) CCOC1(OCC)C(c2ccc(Cl)cc2)C(C#N)(C#N)C1(OCC)OCC (stereo not given)

Assay by compound | 10 | 2 | 7
CBFb RUNX1 block | -11% | -2% | 1%
TexasRed fluor | 1% | -8% | 0%
Tau FP inhib | ? | ? | 8%
Epigenetic reg | -2.1% | 3.9% | -0.8%
TRb-SRC2 inh | 1% | -1% | 2%
Tau fluor cs | -1% | -14% | -7%
GLA spleen mod | -1% | 8% | 2%

More entries:
13) CC(C)C(C(=O)N1CCOCC1)N1C(=O)c2ccccc2C1=O (stereo not given)
14) Fc1ccccc1Cn1nnc2c(NCc3ccccn3)ncnc21
15) O=C(COC(=O)Cc1ccccc1F)Nc1cccc(S(=O)(=O)NC2=NCCCCC2)c1
16) O=C(Nc1ccc2oc(=O)ccc2c1)c1ccco1
17) Cc1c(C(=O)NCc2ccoc2)oc2ccc3c(c12)C(=O)CC(C)(C)O3
18) CCOC(=O)N1CCN(C(=S)NC(=O)C2CCCC2)CC1

Assay by compound | 13 | 14 | 15 | 16 | 17 | 18
CBFb RUNX1 block | 2% | 4% | -2% | 6% | -1% | 8%
TexasRed fluor | 0% | -1% | -1% | -2% | -3% | -4%
Tau FP inhib | -2% | -3% | -1% | -6% | 8% | -12%
Epigenetic reg | 0.1% | -2.1% | 2.3% | -3.0% | -2.8% | -1.1%
TRb-SRC2 inh | 13% | -19% | 1% | -6% | 4% | -1%
Tau fluor cs | -10% | 6% | -4% | -3% | -15% | 5%
GLA spleen mod | 6% | -4% | -20% | 9% | 3% | -1%

19) c1ccc(-n2c(SCC3CCCCO3)nnc2-c2cnccn2)cc1 (stereo not given)
20) CC1CCN(C(=O)c2[nH]cnc2C(=O)N[C@@H](C)C(=O)OCc2ccccc2)CC1
21) CCOC(=O)c1cc(C#N)c(N2CCOCC2)nc1-c1ccccc1
22) CCC(C)NC(=O)CSc1nc2ccccc2c(=O)n1Cc1ccc(OC)cc1 (stereo not given)
23) Cc1cccn2c(=O)c3cc(S(=O)(=O)c4ccccc4)c(=N)n(Cc4ccco4)c3nc12
24) O=C(C1CCCN(CCCc2ccccc2)C1)N1CCCCCC1 (stereo not given)

Assay by compound | 19 | 20 | 21 | 22 | 23 | 24
CBFb RUNX1 block | 5% | 7% | ? | 1% | 3% | 2%
TexasRed fluor | 3% | -1% | 0% | 1% | -1% | -1%
Tau FP inhib | -3% | -2% | -1% | -4% | 0% | 2%
Epigenetic reg | 0.0% | -1.1% | 1.3% | -1.0% | ? | 0.0%
TRb-SRC2 inh | -24% | 4% | 5% | 10% | -5% | 6%
Tau fluor cs | -7% | 1% | -5% | -23% | 4% | 8%
GLA spleen mod | 3% | -1% | 2% | 2% | 5% | 0%

25) O=C1N2CCCc3cccc(c32)C12Nc1ccccc1S2 (stereo not given)
26) CNC(=O)c1ccsc1NC(=O)c1ccc(S(=O)(=O)N2CCCc3ccccc32)cc1
27) CC(C)(C)N(C(=O)Cn1nnc(-c2ccc(F)cc2)n1)C(C(=O)NC1CCCC1)c1ccncc1 (stereo not given)
28) O=C(Nc1ccccc1Oc1ccccc1)c1cccc([N+](=O)[O-])c1
29) COc1ccc(C2CC(c3ccc([N+](=O)[O-])cc3)=NN2C(=O)c2ccccc2)cc1OC (stereo not given)
30) COc1ccc(C)cc1C(=O)CCC(=O)Nc1ccccc1N1CCOCC1
31) N#Cc1c(C(F)(F)F)cc(-c2ccccc2)nc1SCc1nc(N)nc(N2CCOCC2)n1
32) O=C(c1cc(-c2cccs2)on1)N1CCN(C(c2ccccc2)c2ccccc2)CC1

Assay by compound | 25 | 26 | 27 | 28 | 29 | 30 | 31 | 32
CBFb RUNX1 block | -12% | 1%[2.36 µM] | 12% | -14% | 1% | 7% | 4% | 4%
TexasRed fluor | -5% | -2% | -3% | 0% | -1% | -3% | 1% | 2%
Tau FP inhib | -1% | 6% | 4% | 9% | 11% | 11% | 5% | -6%
Epigenetic reg | 0.0% | -1.6% | 0.0% | -0.4% | 1.1% | -9.5% | 6.3µM* | ?
TRb-SRC2 inh | 3% | -2% | 6% | -11% | -7% | -10% | -10% | 3%
Tau fluor cs | -9% | -2% | 2% | ? | ? | 6% | -18% | -14%
GLA spleen mod | -7% | -1% | -5% | 1% | -6% | 14% | 10% | 3%

Entries shown so far containing a halogen (8):
1) O=C(NC(NC(=S)Nc1c(Cl)cccc1Cl)C(Cl)(Cl)Cl)c1cccc([N+](=O)[O-])c1 (stereo not given)
2) O=C(CSc1nnc(COc2ccc(F)cc2)o1)N1c2ccccc2CCc2ccccc21
3) COc1cc(Cl)c(C)cc1NC(=O)c1ccc(NS(=O)(=O)c2ccc(F)c(F)c2)cc1
7) CCOC1(OCC)C(c2ccc(Cl)cc2)C(C#N)(C#N)C1(OCC)OCC (stereo not given)
14) Fc1ccccc1Cn1nnc2c(NCc3ccccn3)ncnc21
15) O=C(COC(=O)Cc1ccccc1F)Nc1cccc(S(=O)(=O)NC2=NCCCCC2)c1
27) CC(C)(C)N(C(=O)Cn1nnc(-c2ccc(F)cc2)n1)C(C(=O)NC1CCCC1)c1ccncc1 (stereo not given)
31) N#Cc1c(C(F)(F)F)cc(-c2ccccc2)nc1SCc1nc(N)nc(N2CCOCC2)n1

Assay by compound | 1 | 2 | 3 | 7 | 14 | 15 | 27 | 31
CBFb RUNX1 block | ? | -2% | -1% | 1% | 4% | -2% | 12% | 4%
TexasRed fluor | -1% | -8% | -2% | 0% | -1% | -1% | -3% | 1%
Tau FP inhib | ? | ? | ? | 8% | -3% | -1% | 4% | 5%
Epigenetic reg | -1.9% | 3.9% | 1.2% | -0.8% | -2.1% | 2.3% | 0.0% | 6.3µM*
TRb-SRC2 inh | -3% | -1% | -2% | 2% | -19% | 1% | 6% | -10%
Tau fluor cs | ? | -14% | -20% | -7% | 6% | -4% | 2% | -18%
GLA spleen mod | 4% | 8% | 10% | 2% | -4% | -20% | -5% | 10%
